GAA spleen mod: inhibitors or activators of human alpha-glucosidase in spleen homogenate; human spleen homogenate, 4-MU-alpha-glucoside fluorescence; 0.006% of 240,000 active; Potency, µM (series often up to 79.9 µM), for the others: at the top dose activity change, negative = inhibition, actives largely listed as inhibitors; AID 2112; P10253;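 note: 0% = enzyme with vehicle and -100% = no enzyme basal signal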
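Human spleen homogenate (1 ug) with 4-methylumbelliferyl-alpha-D-glucopyranoside (1 mM final) in 50 mM citrate/phosphate pH 5.0, 0.01% Tween-20; 40 min at 37 C. Stopped at pH 10; 4-MU fluorescence Ex 365/Em 440 nm; AC50 by Hill fit.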
GAA inh: inhibitors of human lysosomal alpha-glucosidase; purified human GAA, 4-MU-alpha-glucoside fluorescence; Potency, µM (highest dose often 76.9 µM), for inactives: at the top dose activity change, negative = inhibition, hits mostly inhibitors; 0.005% of 200,000 active; AID 1466;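 note: plate controls were uninhibited enzyme wells for no effect and no-enzyme background for full effect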
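qHTS format, compound range up to 77 uM. Human lysosomal enzyme at 4 nM, 400 uM 4-MU glucoside substrate, pH 5.0, 20 min room temperature; fluorescence after alkaline stop gives activity normalized to controls.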
HTT ATP protect: protects HTT-Q103 PC12 cells, measured by ATP; PC12 HTT-Q103 induced, cytoprotection, ATP luminescence, 40 h; Potency, µM (top dose mostly 56.4 µM), without a hit: cytoprotection (ATP increase), usual class: activators; 0.14% of 230,000 active; AID 1471;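 note: % of control where 0% means no effect; nearly all actives have a fitted effect of over 45% in size; toxic huntingtin expression switched on by the ecdysone agonist tebufenozide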
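Compounds added alongside 100 nM tebufenozide, which induces toxic Q103 huntingtin exon 1-GFP in stable PC12 cells; surviving cells quantified by luminescent ATP measurement. Medium: phenol red-free DMEM, 5% equine and 5% calf serum.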
GAA glycogen mod: GAA glycogen-cleavage inhibition or activation; P10253; recombinant GAA, glycogen substrate, Amplex Red glucose oxidase fluorescence; Potency, µM (doses to about 76.4 µM), inactives show top-dose activity change, negative = inhibition, usual class: inhibitors; 0.38% of 300,000 active;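 note: 0% = full enzyme reaction and -100% = no-enzyme basal signal; the screen sought inhibitors and activators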
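Recombinant human enzyme (4 nM); glycogen substrate; 37 C, 40 min, pH 5.0. Readout: coupled glucose oxidase/Amplex Red fluorescence.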
HTT aggregate: mutant huntingtin aggregation inhibition. PC12 HttQ103-GFP aggregates, Acumen cytometry, 40 h. Potency, µM (highest dose often 46.1 µM), for inactives: at the highest dose activity change, negative = inhibition, hits mostly inhibitors. 1.1% of 220,000 active; note: % is set by controls: 0 for no effect and ±100 for the full control effect; nearly all actives have a fitted effect of over 60% in size
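Compounds (qHTS titration) were added to PC12 cells expressing an ecdysone-driven HTT exon 1 Q103–GFP fusion after induction with 100 nM tebufenozide. Aggregate formation was measured as GFP objects in cell lysates.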
IMPase Li inh: IMPase inhibition in cells with lithium potentiation. CHO-M1 cells, IP1 TR-FRET (IP-One), carbachol + lithium. Potency, µM (doses to about 59.4 µM), without a hit: at the top dose activity, negative = IMPase inhibition, usual class: inhibitors. 0.35% of 210,000 active. AID 1457;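 note: IP1 builds up when IMPase is blocked and the TR-FRET signal falls; plate controls were basal vehicle for no effect and high inhibitor control for full effect; nearly all actives have a fitted effect of over 50% in size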
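Concentration–response in CHO-M1 cells, lithium-potentiated; 30 min at 37C. IP1 detected by competitive TR-FRET after 10 min lysis at RT. Hill-fitted AC50.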
An asterisk follows results filed as active; & = joins results of further samples; [ ] = another dose, or the depositor's remark. Calls come from the whole dose curve; as a rule, active = well fitted curve in the direction sought with a large enough effect; inconclusive = small, poorly fitted or top-dose-only effect, or another doubt; inactive = no such curve, though single readings can be large; an effect the other way counts as inactive or inconclusive. Potency is the fitted concentration of half-maximal effect.

Screening Cc1cc(-c2csc(NC(=O)c3ccc(=O)[nH]c3)n2)c(C)n1Cc1ccco1 returned GAA spleen mod -4%, GAA inh -4%, HTT ATP protect 25%[10 µM], GAA glycogen mod inconclusive and HTT aggregate 17%[9.22 µM].
For C/C(CC(=O)NC1CCCCC1)=N\NC(=O)COc1ccc(C)cc1Br the results were GAA inh -3%, HTT ATP protect -35%[inhibitor], GAA glycogen mod 2%, HTT aggregate -14% and IMPase Li inh inconclusive.
Screening O=C(CSc1nnc(COc2ccc(Br)cc2)o1)N1CCOCC1 returned GAA spleen mod 7%, GAA inh -1%, HTT ATP protect 18%[10 µM], GAA glycogen mod 4%, HTT aggregate 9%[9.22 µM] and IMPase Li inh 15%.
For Cc1cccc(C(=O)N2CCC(=O)N([C@H](COCc3ccccc3)Cc3ccccc3)CC2)c1 the results were GAA spleen mod 11%, HTT ATP protect -20% and IMPase Li inh 7%.
Screening CN(C)c1oc(-c2ccccc2)nc1C#N returned GAA spleen mod 7%, GAA inh 2%, HTT ATP protect 4%, GAA glycogen mod -1%, HTT aggregate 32% and IMPase Li inh -16%[38.3 µM].
Cc1onc(-c2c(Cl)cccc2Cl)c1C(=O)N=S(C)(=O)c1ccccc1 (stereo not given) was read as GAA spleen mod 6%, HTT ATP protect 7%[10 µM], GAA glycogen mod 2% and HTT aggregate -10%[9.22 µM].
COC(=O)c1ccc(OC(=O)c2nn(C)cc2Cl)c(OC)c1 was read as GAA spleen mod -15%, GAA inh 2%, HTT ATP protect 4%, GAA glycogen mod 10%, HTT aggregate -6% and IMPase Li inh 20%[38.3 µM].
Screening CC(C)CN1CC2(CCN(C(=O)c3csnn3)CC2)C1 returned GAA spleen mod -3%, HTT ATP protect -93%[inhibitor] and IMPase Li inh 16%.
Screening COc1ccc(CCNC(=O)CN(C2CCCCC2)S(C)(=O)=O)cc1OC returned GAA spleen mod -2%, GAA inh 5%, HTT ATP protect 0%[10 µM], GAA glycogen mod 2%, HTT aggregate inconclusive and IMPase Li inh 14%[38.3 µM].
Screening CCOC(=O)c1cc(C#N)c(Oc2ccc(F)cc2)nc1-c1ccccc1 returned GAA spleen mod -5%, GAA inh inconclusive, HTT ATP protect -42%[inhibitor], GAA glycogen mod -2%, HTT aggregate -13% and IMPase Li inh 9%[38.3 µM].
Screening O=C(Nc1ccccc1Oc1ccccc1)c1cccc([N+](=O)[O-])c1 returned GAA spleen mod 0%, GAA inh -3%, HTT ATP protect 13%, GAA glycogen mod -8%, HTT aggregate 32% and IMPase Li inh -7%[38.3 µM].
Screening CC(C)c1nnc(NC(=O)CCC(=O)NCCc2ccccc2)s1 returned GAA spleen mod -3%, HTT ATP protect 9%[10 µM], GAA glycogen mod 5% and HTT aggregate 9%[9.22 µM].
For COc1ccc(C(=O)NCc2nnc(SCC(=O)N3CCC(C)CC3)o2)cc1 the results were GAA spleen mod -9%, GAA inh -3%, HTT ATP protect -26%, GAA glycogen mod 7%, HTT aggregate -1% and IMPase Li inh 6%.
`COc1ccccc1NC(=O)N(Cc1ccccc1)C1=NCC(C)S1` (stereo not given) gave GAA spleen mod 2%, GAA inh -3%, HTT ATP protect -7%, GAA glycogen mod -11%, HTT aggregate -4% and IMPase Li inh 24%[38.3 µM].
Screening O=C(O)c1cc(-c2ccccc2Cl)n[nH]1 returned GAA spleen mod 2%, GAA inh 1%, HTT ATP protect -6%, GAA glycogen mod 7%, HTT aggregate 16% and IMPase Li inh 16%[38.3 µM].
`CCc1ccc(N2C(=O)c3sc4nnc(-c5ccccc5)c(=O)n4c3C2=O)cc1` gave GAA spleen mod 2%, GAA inh -3%, HTT ATP protect -42%[inhibitor], GAA glycogen mod -1%, HTT aggregate 10% and IMPase Li inh 26%[38.3 µM].
For O=c1cc(NC2CCCCC2)c2ccccc2o1 the results were GAA spleen mod -10%, GAA inh -3%, HTT ATP protect -7%, GAA glycogen mod 7%, HTT aggregate -28% and IMPase Li inh 32%[activator][38.3 µM].
CCC1CCCCN1C(=S)NC(=O)c1ccc([N+](=O)[O-])cc1 (stereo not given) was read as GAA spleen mod -4%, GAA inh -5%, HTT ATP protect 22%[10 µM], GAA glycogen mod -1%, HTT aggregate -16% and IMPase Li inh 1%.
`N#Cc1cn(CC(=O)N2CCCC2)c2ccccc12` gave GAA spleen mod -3%, GAA inh -17%, HTT ATP protect -6%[10 µM], GAA glycogen mod 5%, HTT aggregate -3% and IMPase Li inh 15%[38.3 µM].
CSc1nnc(-c2ccncc2)n1CCCN1CCCC1=O was read as GAA spleen mod -6%, GAA inh -4%, HTT ATP protect 3%[10 µM], GAA glycogen mod 7%, HTT aggregate -6% and IMPase Li inh 0%[38.3 µM].
O=C(/C=C/NNC(=O)c1ccccc1)c1ccc([N+](=O)[O-])cc1 was read as GAA spleen mod 6%, GAA inh -1%, HTT ATP protect -81%[inhibitor][10 µM], GAA glycogen mod inconclusive, HTT aggregate inconclusive and IMPase Li inh 60%[activator].
Screening Cn1c(SCC(=O)NCc2ccco2)nnc1-c1ccccc1 returned GAA spleen mod 0%, GAA inh 0%, HTT ATP protect 5%[1.9 µM], GAA glycogen mod 3%, HTT aggregate -10% and IMPase Li inh 1%.
`CS(=O)(=O)N1CCc2cc(C(=O)OCC(=O)c3ccccc3)ccc21` gave GAA spleen mod -7%, GAA inh -2%, HTT ATP protect -8%[10 µM], GAA glycogen mod -14%, HTT aggregate -3% and IMPase Li inh 10%[38.3 µM].
`O=C(Nc1cc(S(=O)(=O)N2CCCC2)ccc1OCC(F)(F)F)c1ccccc1F` gave GAA spleen mod -8%, GAA inh 1%, HTT ATP protect 10%[10 µM], GAA glycogen mod 1%, HTT aggregate -8% and IMPase Li inh 8%.
For Cc1ccc(OCCn2c(C3CC(=O)N(Cc4ccccc4)C3)nc3ccccc32)cc1 (stereo not given) the results were GAA spleen mod -13%, GAA inh 4%, HTT ATP protect 9%[10 µM], GAA glycogen mod -4%, HTT aggregate -12% and IMPase Li inh 46%[activator][38.3 µM].
`COc1ccc(OCC(=O)NNC(=O)c2cccc(S(=O)(=O)N(C)C)c2)cc1` gave GAA spleen mod -6%, GAA inh -19%, HTT ATP protect -2%[10 µM], GAA glycogen mod -4%, HTT aggregate 16% and IMPase Li inh 2%.
Screening CCN(CC)CCNS(=O)(=O)c1ccc(OC)c(Br)c1 returned GAA spleen mod 8%, GAA inh -1%, HTT ATP protect -7%, GAA glycogen mod -5%, HTT aggregate 4% and IMPase Li inh 3%[38.3 µM].
Screening COc1cc(CO)c(Br)cc1OCC(N)=O returned GAA spleen mod -17%, GAA inh -12%, HTT ATP protect -32%[1.9 µM], GAA glycogen mod -2%, HTT aggregate 12%[9.22 µM] and IMPase Li inh -1%.
For CCOc1ccc(NC(=O)c2cnsn2)cc1 the results were GAA spleen mod -4%, GAA inh -7%, HTT ATP protect -110%[inhibitor][0.074 µM], GAA glycogen mod -8%, HTT aggregate -9% and IMPase Li inh -4%[38.3 µM].
Screening C/C(=N\NC(=O)c1ccccc1O)c1c(O)cc(C)oc1=O returned GAA spleen mod -15%, GAA inh -2%, HTT ATP protect -43%[inhibitor], GAA glycogen mod inconclusive, HTT aggregate -17% and IMPase Li inh -6%[38.3 µM].

Fetched one by one from the entries so far, 3 records:
Screening CCOC(=O)c1cc(C#N)c(Oc2ccc(F)cc2)nc1-c1ccccc1 returned GAA spleen mod -5%, GAA inh inconclusive, HTT ATP protect -42%[inhibitor], GAA glycogen mod -2%, HTT aggregate -13% and IMPase Li inh 9%[38.3 µM].
Screening O=C(Nc1ccccc1Oc1ccccc1)c1cccc([N+](=O)[O-])c1 returned GAA spleen mod 0%, GAA inh -3%, HTT ATP protect 13%, GAA glycogen mod -8%, HTT aggregate 32% and IMPase Li inh -7%[38.3 µM].
`CCc1ccc(N2C(=O)c3sc4nnc(-c5ccccc5)c(=O)n4c3C2=O)cc1` gave GAA spleen mod 2%, GAA inh -3%, HTT ATP protect -42%[inhibitor], GAA glycogen mod -1%, HTT aggregate 10% and IMPase Li inh 26%[38.3 µM].

Further results:
`CC(=O)NC1(C(F)(F)F)C(=O)Nc2c1c(=O)[nH]c(=O)n2-c1ccccc1` (stereo not given) gave GAA spleen mod 11%, HTT ATP protect 13%[10 µM], GAA glycogen mod 3% and HTT aggregate -4%[9.22 µM].
Screening O=C(NNS(=O)(=O)c1ccc(C(=O)NC2CCCC2)cc1)c1ccncc1 returned GAA spleen mod 2%, GAA inh 6%, HTT ATP protect 3%, GAA glycogen mod inconclusive, HTT aggregate 15% and IMPase Li inh -1%.
Screening COCCNC(=O)[C@@]1(Cc2ccccc2)C=C[C@@H](C)N1C(C)=O returned GAA spleen mod 8%&11%, GAA inh 5%, HTT ATP protect -18%, GAA glycogen mod 9%, HTT aggregate 5% and IMPase Li inh -3%&-7%.
`CC(C)C(NC(=O)COc1ccc2ccccc2c1)C(=O)N/N=C/C=C/c1ccccc1` (stereo not given) gave GAA spleen mod -5%, GAA inh -3%, HTT ATP protect -34%, GAA glycogen mod 2%, HTT aggregate 9% and IMPase Li inh 20%[38.3 µM].
For Cc1ccc(C2NC(c3ccc(C)cc3)C(C)C(=O)C2C)cc1 (stereo not given) the results were GAA spleen mod -2%, HTT ATP protect -16%[10 µM], GAA glycogen mod 5% and HTT aggregate -17%[9.22 µM].
`C/C=C/C=C/C(=O)OCC(=O)Nc1ccc(Cl)cc1` gave GAA spleen mod -1%, GAA inh 5%, HTT ATP protect -16%, GAA glycogen mod -3%, HTT aggregate inconclusive and IMPase Li inh 1%.
`O=C(CC1CCS(=O)(=O)C1)Nc1ccc[nH]c1=O` (stereo not given) gave GAA spleen mod 8%, GAA inh 0%, HTT ATP protect 11%[10 µM], GAA glycogen mod -3%, HTT aggregate 2% and IMPase Li inh -4%.
For COc1cccc(CNC2CCCC2)c1 the results were GAA spleen mod -7%, GAA inh -5%, HTT ATP protect 1%, GAA glycogen mod -20%, HTT aggregate 13% and IMPase Li inh -5%[38.3 µM].
Cc1cc(C)nc(NC(=O)CSc2nc3ccccc3o2)n1 was read as GAA spleen mod -2%, GAA inh -4%, HTT ATP protect -5%[10 µM], GAA glycogen mod 21%, HTT aggregate 10% and IMPase Li inh 5%[38.3 µM].
`Cc1ccccc1NC(=O)C1CC(Cl)=CCC1C(=O)O` (stereo not given) gave GAA spleen mod -3%, GAA inh -3%, HTT ATP protect 2%, GAA glycogen mod -8%, HTT aggregate 6%[9.22 µM] and IMPase Li inh -3%[38.3 µM].
`Cc1ccc(OCc2nnc(SCC(=O)Nc3cc(C)on3)n2C)cc1` gave GAA spleen mod -3%, GAA inh 9%, HTT ATP protect 1%, GAA glycogen mod 8%, HTT aggregate -9% and IMPase Li inh 20%[38.3 µM].
Screening CCCC(=O)Nc1nnc(CCN2CCCCC2)s1 returned GAA spleen mod -6%, GAA inh 7%, HTT ATP protect -22%, GAA glycogen mod 0%, HTT aggregate 2% and IMPase Li inh 7%[38.3 µM].
Screening Cc1cccc(C(=O)N2CCC(=O)N([C@H](COCc3cccc(Cl)c3)Cc3ccccc3)CC2)c1 returned GAA spleen mod -9%, HTT ATP protect -57%[inhibitor] and IMPase Li inh 17%.

Compound activity (PubChem BioAssay)

Only part of the results is shown; count on the stated rates, not on these rows.
